VDR inh: inhibitors of human vitamin D receptor; P11473; VDR-SRC2-3 peptide fluorescence polarization, 2 h; Potency, µM, for inactives: max response, negative = inhibition, most hits filed as inhibitors; 400,000 compounds, 0.93% hits; AID 504847; active means well fitted inhibition curve with a large enough effect; inconclusive means small, poorly fitted or top-dose-only effect, or another doubt; inactive means no such curve, though single readings can be large or run the other way; further: series mostly up to about 120 µM
Target sequence (P11473 whole entry, looked up): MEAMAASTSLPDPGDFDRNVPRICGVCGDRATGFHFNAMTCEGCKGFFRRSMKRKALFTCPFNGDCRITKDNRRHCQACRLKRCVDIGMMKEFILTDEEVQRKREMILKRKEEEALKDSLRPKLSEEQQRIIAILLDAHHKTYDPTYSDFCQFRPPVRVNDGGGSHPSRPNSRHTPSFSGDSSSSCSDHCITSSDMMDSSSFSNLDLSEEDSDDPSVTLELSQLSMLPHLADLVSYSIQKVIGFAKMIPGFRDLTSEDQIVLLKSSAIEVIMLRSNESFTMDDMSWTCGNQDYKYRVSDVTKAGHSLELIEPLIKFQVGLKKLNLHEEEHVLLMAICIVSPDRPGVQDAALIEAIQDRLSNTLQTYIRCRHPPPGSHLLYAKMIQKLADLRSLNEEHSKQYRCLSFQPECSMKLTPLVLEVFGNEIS
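Fluorescence polarization assay measuring small-molecule disruption of VDR binding to the coregulator peptide SRC2-3. Compounds were pin-transferred (23 nl) into the reagent mix and incubated 2 h at room temperature before reading.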
* marks the source's active call; other numbers are inactive results; ? = inconclusive; & = joins results of further samples. On the % scale 0 is the no-effect control and ±100 the full control effect; potency means the concentration at half of the fitted maximal effect.

# | molecule | VDR inh
1 | CN(C)S(=O)(=O)c1ccc(N2CCCC2)c(C(=O)NNC(=O)c2ccc(Br)cc2)c1 | -2%
2 | COCCNC(=O)c1cc2c(=O)n(C)c3ccccc3c2n1C | -21%
3 | COc1cc(OC)c(NC(=O)N2CCCn3nc(C)cc32)cc1Cl | 5%
4 | Cn1cc(C(=O)Nc2ccc(F)c(Cl)c2)cn1 | 2%
5 | Nc1nc(Nc2ccc(Cl)cc2Cl)nc(C(F)(F)F)n1 | -10%
6 | Brc1cc2c(cc1CSc1ncccn1)OCO2 | 20%
7 | Cc1cc(N(C)Cc2ccccc2)nc2cc(O)ccc12 | 7%
8 | CC(=O)c1cccc(CN2CCCC(CCC(=O)NCc3ccccc3F)C2)c1 (centres undefined) | 15%
9 | CCOC(=O)c1sc(=NC(=O)c2c(F)cccc2F)n(C)c1C | -13%
10 | CS(=O)(=O)c1ccc(C(=O)NNC(=O)c2cc(-c3ccccc3)n[nH]2)cc1 | 7%
11 | CCN1C(=O)c2ccc(C(=O)Nc3nccs3)cc2C1=O | -3%
12 | CC1CCC(C(C)C)C(OCC(O)CNC(C)c2ccccc2)C1 (centres undefined) | -2%
13 | CC(=O)c1ccc(NC(=O)C2CCCN(S(=O)(=O)c3cn(C)cn3)C2)cc1 (centres undefined) | 3%
14 | CC(C)C[C@@H](CC#N)N1CCN(CCc2ccccc2)CCC1=O | -5%
15 | COc1ccccc1CNC(=O)COC(=O)CSc1ccc(Cl)cc1 | -2%
16 | CCN(C(=O)COC(=O)/C(C#N)=C/c1cc(C)n(CCOC)c1C)c1c(N)n(Cc2ccccc2)c(=O)[nH]c1=O | -10%
17 | O=C(NCc1cccc(Cl)c1)NCc1cccc(Cl)c1 | 7%
18 | COC(=O)N1CCC2(CC1)CN(c1cccc(-c3ccccc3)c1)C2 | -13%
19 | O=C(CN(C(=O)CNC(=O)c1ccco1)c1ccc2c(c1)OCO2)NC1CCCCC1 | -15%
20 | COc1ccc(C(=O)NCc2cccnc2)cc1Br | 2%
21 | CCC(O)c1cc2c(cc1NC(=O)c1ccc(C)cc1)OCCO2 (centres undefined) | -6%
22 | COc1ccc(N2C(=O)CCC(C(=O)N3CCCCC3)C2c2ccc(F)cc2)cc1 (centres undefined) | 2%
23 | O=C(Nc1cccc(-n2cnnn2)c1)c1ccc(OC(F)(F)F)cc1 | -12%
24 | O=C(NNC(=S)Nc1ccc(Cl)cc1)c1ccccc1OC(F)F | -12%
25 | CO/N=C/c1c(-c2ccccc2)nn(C)c1Cl | -3%
26 | Cc1ccccc1OCCC(=O)NCCc1ccc(S(N)(=O)=O)cc1 | 8%
27 | COc1ccccc1CNC(=O)Cn1nnc(-c2ccncc2)n1 | 7%
28 | CN1CCN(C(=O)Nc2ccccc2)CC1 | -5%
29 | CCc1cccc(CC)c1NC(=S)N1CCn2cccc2C1c1ccncc1 (centres undefined) | -15%
30 | CCOc1ccccc1N1CCN(CC(=O)Nc2cc(C)on2)CC1 | -7%
31 | C=CCn1c(=N)n(CC(=O)OC)c2ccccc21 | -6%
32 | CCCn1cc(S(=O)(=O)c2ccc(C)cc2)c(=O)c2cc(OCC)ccc21 | -13%
33 | CC(C)OCCCn1c(SCc2ccccc2C#N)nc2c(sc3ccccc32)c1=O | -2%
34 | O=S1(=O)c2ccccc2N=NN1Cc1ccc(Cl)cc1 | -6%
35 | C[C@@H]1OC(OC2C(OC3CC[C@@]4(C)C5CC=C6C7CC(C)(C)CC[C@@]7(C(=O)O)CCC6(C)C5(C)CCC4[C@]3(C)CO)OCC(O)C2O)C(O)C(O)C1O (some centres undefined) | 2%
36 | CCc1cc(=O)oc2cc(C)cc(OC(C)C(=O)NCc3cccnc3)c12 (centres undefined) | -6%
37 | CC(=O)NCCNc1nc2c(-c3cccc(C(F)(F)F)c3)nnn2c2ccccc12 | -19%
38 | CC(C)c1nnc(NC(=O)CCC(=O)N2CCN(Cc3ccc(F)cc3)CC2)s1 | 14%
39 | Cc1cc(NS(=O)(=O)c2ccc(NC(=S)NC(=O)c3ccc(C(C)(C)C)cc3)cc2)no1 | -12%
40 | COc1ccc(C(CC(=O)O)NC(=O)C(c2ccccc2)c2ccccc2)cc1 (centres undefined) | -28%
41 | COc1cc2cc(CN(Cc3cccnc3)C(=O)Nc3ccccc3F)c(=O)[nH]c2cc1OC | -1%
42 | CC(C)OC(=O)CNc1n[nH]c(=S)[nH]c1=O | -8%
43 | CCOCC(=O)Nc1ccc(OCc2ccccc2)cc1 | 10%
44 | C=CCn1c(Cc2cccs2)nnc1SCC(=O)Nc1ccc(OC)cc1 | -10%
45 | CCOC(=O)c1cnc2ccc(Br)cc2c1NCCCN1CCOCC1 | -5%
46 | Cc1cc(NC(=O)CSc2n[nH]c(-c3ccc(Cl)cc3Cl)n2)no1 | -2%
47 | CCOc1ccc(S(=O)(=O)N(C)c2ccc(OCC(=O)NCCc3ccc(OC)cc3)cc2)cc1 | 0%
48 | COc1ccc(S(=O)(=O)N2CCC(CN3C(=O)c4cccc5cccc(c45)C3=O)CC2)cc1 | -6%
49 | CCn1c(SCC(=O)NC2CC2)nnc1-c1ccccn1 | -7%
50 | CC(C(=O)NCCc1ccc(S(N)(=O)=O)cc1)N1C(=O)CC(C)(C)Sc2ccccc21 (centres undefined) | 6%

Fetched one by one from the list above (3):
# | molecule | VDR inh
46 | Cc1cc(NC(=O)CSc2n[nH]c(-c3ccc(Cl)cc3Cl)n2)no1 | -2%
35 | C[C@@H]1OC(OC2C(OC3CC[C@@]4(C)C5CC=C6C7CC(C)(C)CC[C@@]7(C(=O)O)CCC6(C)C5(C)CCC4[C@]3(C)CO)OCC(O)C2O)C(O)C(O)C1O (some centres undefined) | 2%
37 | CC(=O)NCCNc1nc2c(-c3cccc(C(F)(F)F)c3)nnn2c2ccccc12 | -19%

Other records.
# | molecule | VDR inh
51 | Cc1ccc(N2CC(C(=O)NCCCn3ccnc3)CC2=O)cc1 (centres undefined) | -8%
52 | Cc1ccc(-c2csc(/C(C#N)=C/Nc3ccccc3SC(F)(F)F)n2)cc1 | -8%
53 | CCCn1c(SCC(=O)NC2CCCC2)nnc1-c1cccnc1 | -13%
54 | COc1ccccc1NC(=O)CSC1=NCCN1 | ?
55 | COc1ccc(S(=O)(=O)Nc2ccc(S(=O)(=O)Nc3ccc(F)cc3)cc2)cc1C | 2%
56 | O=C(Cc1cccs1)Nc1ccc(S(=O)(=O)Nc2ncccn2)cc1 | 28%
57 | CC(NC(=O)CSc1nc2c(c(C(F)(F)F)n1)CCc1ccccc1-2)c1ccccc1 (centres undefined) | -2%
58 | COC(=O)c1ccc2nc(C3CCCCC3)c3c(c2c1)CCC3 | -5%
59 | COc1ccc(/C=C/C(=O)N2c3ccccc3Sc3ccc(C(F)(F)F)cc32)cc1 | -19%
60 | CC1CC=CC2C1C(=O)N(Cc1ccccc1)C2c1ccc(/C=C/c2ccccc2)cc1F (centres undefined) | -10%
61 | CC(C)(C)C(=O)/C(=C/c1ccncc1)n1cncn1 | ?
62 | CCN(CC)c1ncnc2sc3c(c12)CCC3 | 5%
63 | O=C(Oc1coc(CSc2nnc(NC(=O)C3CC3)s2)cc1=O)c1c(F)cccc1F | -13%
64 | Nc1cccn2c(-c3ccc(Cl)c(Cl)c3)cnc12 | -7%
65 | COc1cc2c(cc1OC)C(/C=C/c1ccc(OC)c(OC)c1OC)=NCC2 | 50µM*
66 | O=C(Cc1ccc(-n2c(=O)[nH]c3ccsc3c2=O)cc1)N1CCN(c2ccc(Cl)cc2)CC1 | -1%
67 | COc1ccc(Cl)cc1C(=O)N/N=C/c1ccc(N2CCOCC2)cc1 | 0%
68 | Cn1nc(C(=O)O)c(=O)n(C)c1=O | -23%
69 | CCCS(=O)(=O)N1CCc2ccc(NC(=O)C3CCCO3)cc2C1 (centres undefined) | -24%
70 | CCN(C(=O)COC(=O)C1CCN(S(=O)(=O)c2ccc(C)c(C)c2)CC1)C1CCS(=O)(=O)C1 (centres undefined) | 8%
71 | COc1ccc(C(=O)Nc2ccc(S(=O)(=O)N3CCCCC3)cc2)cc1OC | -4%
72 | O=C(CNC(=O)c1cccs1)N/N=C/c1ccccc1[N+](=O)[O-] | 17%
73 | O=C(CN1CCCCCC1)Nc1cccc2c1OCO2 | -6%
74 | O=C(Cn1ccc2cc(S(=O)(=O)N3CCCCC3)ccc21)NCCc1ccccc1Cl | 11%
75 | COc1ccc(Cl)cc1-n1c(/C=C/c2cccc3ccccc23)nc2ccccc2c1=O | 5%
76 | COc1cccc(/C=C/C(=O)OCC(=O)NCCC2=CCCCC2)c1OC | 2%
77 | Cc1cc(NS(=O)(=O)c2ccc(N)cc2)no1 | -10%&0%&-6%
78 | COc1ccc(/C=N/NC(=O)CSCC(=O)Nc2ccccc2)cc1OC | 1%
79 | COc1ccc(NC(=O)COc2ccc3oc(=O)cc(C)c3c2)cc1 | 13%
80 | COc1ccc2c(c1)[nH]c1c(=O)n(/N=C/C3C(C)C=C(C)CC3C)c(=O)[nH]c12 (centres undefined) | -3%
81 | O=C(CCN1C(=O)c2ccccc2S1(=O)=O)Nc1ccccc1 | -4%
82 | COCCOC(=O)/C(=C\c1cc(C(C)(C)C)c(O)c(C(C)(C)C)c1)C(C)=O | 35µM*
83 | Cc1ccc(C)n1C1CCS(=O)(=O)C1 (centres undefined) | -8%
84 | CCOc1ccc(NC(=O)CN(C)C(=O)c2ccc(OCC(=O)N3CCOCC3)c(OC)c2)cc1OCC | -5%
85 | COC(=O)c1ccc(Oc2c(Cl)cccc2[N+](=O)[O-])cc1 | ?
86 | CCCC(=O)Nc1cc2nn(-c3ccc(OC)cc3)nc2cc1C | 9%
87 | CC(O)/C=C/c1cccc[n+]1C (centres undefined) | -12%
88 | S=C(Nc1ccc(Oc2ccccc2)cc1)N1CCN(c2ccccn2)CC1 | -12%
89 | CC1CCCCN1CCCNC(=O)CN1C(=O)c2cccnc2Oc2ccccc21 (centres undefined) | -20%&5%
90 | Cc1ccnc(NC(=O)CCC(=O)c2cccs2)c1 | 1%
91 | O=C(Nc1ccc(-n2cccn2)cc1)C1CCCCN1Cc1cccc2cccnc12 (centres undefined) | 4%
92 | O=C(c1cccc(S(=O)(=O)Nc2ccc(F)cc2)c1)N1CCCC1 | -13%
93 | C=CCNC(=O)c1oc2ccc(S(=O)(=O)N3CCCCC3)cc2c1C | -1%
94 | COC(=O)[C@]1(CC(C)C)N[C@H](c2ccc(SC3CCCCC3)cc2)[C@@H]2C(=O)N(C)C(=O)[C@@H]21 | 3%
95 | Cc1ccc(S(=O)(=O)NCc2ccc(C(=O)NCCN(Cc3ccccc3)C(C)C)cc2)cc1 | -1%
96 | C=CCNC(=O)CN1CCC(O)(c2ccc(F)cc2)CC1 | 7%
97 | Cc1ccc(C(=O)CN2C(=O)NC3(CCOc4ccccc43)C2=O)s1 (centres undefined) | -13%
98 | C=CCn1c(SCC(=O)Nc2ccc(-c3nc4ccc(C)cc4s3)cc2)nnc1-c1ccccc1 | -7%
99 | C[C@@]1(C(=O)O)NCCc2cc(O)c(O)cc21 | -12%
100 | Cc1cccc(CCN2C(N(C)C)=NC[C@@H]2C)c1 | -7%

Next results
# | molecule | VDR inh
101 | O=[N+]([O-])c1ccc(Sc2n[nH]c(-c3ccncc3)n2)nc1 | -7%
102 | O=P(COCCO)(c1ccccc1)c1ccccc1 | -3%
103 | COc1ccc(-c2cn3c(n2)sc2cc(C(=O)NCc4cccs4)ccc23)cc1 | 16%
104 | CN1CCN(C2=Nc3c(Cl)cc(Cl)c4cccc2c34)CC1 | 6%
105 | COc1ccc(-c2nnc(SCC(=O)NC3CC3)o2)c(OC)c1 | -17%
106 | CC(=O)Nc1ccc(C(=O)COC(=O)c2nc3nc(C)cc(C)n3n2)cc1 | -7%
107 | COc1cccc(CNC(=O)Cn2cc3c(n2)CCCCC3)c1 | -8%
108 | COc1cc2nc(CN(C)CC(=O)Nc3ccc(N4CCOCC4)cc3)[nH]c(=O)c2cc1OC | -14%
109 | CCOc1ccc(S(=O)(=O)Nc2ncn[nH]2)cc1 | -5%
110 | CC(C)N1CCc2c(sc(NC(=O)CCS(=O)(=O)c3ccccc3)c2C(N)=O)C1 | -1%
111 | O=C(O)c1ccccc1Sc1ccccc1S(=O)(=O)NC1CCCCC1 | 5%
112 | CC(Nc1c([N+](=O)[O-])c(=O)oc2ccccc12)C(Cl)c1ccccc1 (centres undefined) | -18%
113 | COCC(=O)N1CCC2(CCCN(C(=O)Nc3ccccc3)C2)CC1 | -2%
114 | O=C(C1CCN(S(=O)(=O)Cc2ccccc2)CC1)N1CCN(c2ccccc2)CC1 | 7%
115 | Cc1sc2c(c1C)CN(CCN1CCOCC1)CN2C(=O)c1ccccc1 | 23%
116 | Fc1ccc(CNC(=S)NC2CCCCCC2)cc1 | -2%
117 | NS(=O)(=O)c1ccc(N=Cc2ccc(Br)s2)cc1 | -8%
118 | CC(C)Sc1cc(Cl)nc(NC(=O)Nc2ccccc2)n1 | -10%
119 | COc1cc(SC)ccc1C(=O)NCCCOC(C)C | 13%
120 | CC(C)CNC(=O)CC(=O)N/N=C/c1ccc(F)cc1 | -28%
121 | O=C(CSc1nnc(NC(=O)c2cc(Br)ccc2Cl)s1)NCC1CCCO1 (centres undefined) | -12%
122 | O=C(Nc1nc(-c2ccccc2)cs1)c1ccccc1NS(=O)(=O)c1ccc(F)cc1 | -11%
123 | COc1cc2c(-c3cc(Br)ccc3O)nc3c(c(C)nn3-c3ccccc3)c2cc1OC | -14%
124 | COc1ccc(N2CCN(C(=O)C3CCN(C(=O)c4ccccc4Cl)CC3)CC2)cc1 | 12%
125 | CC(=O)c1cccc(NC(=O)CC2CCCC2)c1 | 6%
126 | C[C@H]1/C=C\CC(=O)NCc2cccc(c2)CNC(=O)N[C@H]1c1ccccc1 | -5%
127 | C[C@@H]1O[C@@H](OC[C@H]2O[C@@H](Oc3c(-c4ccc(O)cc4)oc4cc(O)cc(O)c4c3=O)[C@H](O)[C@@H](O)[C@@H]2O)[C@H](O)[C@H](O)[C@H]1O | 5%
128 | COc1ccc(OCC(=O)NNC(=O)C2CCN(c3ncnc4sc(C)c(C)c34)CC2)cc1 | 2%
129 | CCc1nc2ccc(C(=O)N3CCN(c4cc(C)ccc4C)CC3)cc2nc1CC | -7%&14%

This is a subset. The share of hits here may be higher or lower than overall.
